# CtBP-E1A blk = qHTS Assay for Inhibitors of the CtBP/E1A Interaction | CtBP / adenovirus E1A interaction (AlphaScreen) | AlphaScreen GST-E1A/His-CtBP binding, 1536-well; hits give low values; control for the full effect not named in the record | activity change, % (no concentration beside the values) | 340,000 compounds, 0.49% hits | AID 651724, 2012; in the data active means activity change below about -65%; inconclusive means about -30% to -65%; inactive means above about -30%; also: % is scaled to controls: 0 for no effect and ±100 for the full control effect
#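 AlphaScreen with 125 nM GST-E1A and 125 nM His-CtBP (5X stocks) in Tris pH 8.0, 300 mM NaCl, BSA, Tween 20, TCEP. Compounds preincubated 2 h at 37 deg C, then glutathione donor/nickel acceptor beads added for 1 h at 37 deg C in dark.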
# PINK1 modulator = A Quantitative High throughput Screen to Identify Chemical Modulators of PINK1 Expression. Potency, µM (top dose mostly 76.6 µM), for inactives: at the highest dose activation (PINK1 increase), usual class: activators. PINK1 immunofluorescence, high-content cytometry, 24 h. 410,000 compounds, 0.2% hits; active = well fitted activation curve with a large enough effect; inconclusive = small, poorly fitted or top-dose-only effect; inactive = flat fitted curve, though single readings scatter; cell line not stated here;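 also: potency is read from the fitted curve at half-maximal effect; % of control where 0% means no effect; nearly all actives have a fitted effect of over 65% in size; a mitochondrial uncoupler was the plate control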
#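 Fluorescence from anti-PINK1 antibody, together with nuclear and cell stains, was scanned on a laser-scanning cytometer. Before staining, stable-line cells were incubated 24 hours with compounds at 5 concentrations; primary antibody 12 h at 10 degrees C.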
# TRPML1 agonist = qHTS for Agonists of the Human Mucolipin Transient Receptor Potential 1 (TRPML1); activation, % (test concentration not listed); TRPML1-expressing cells, Ca2+ dye fluorescence, FDSS; host cell line not named in the record; reference of the full effect not given here; AID 624414, 2012; 410,000 compounds, 0.12% hits; Mucolipin-1 (Homo sapiens), Q9GZU1; in the data active = activation above about 50%; inconclusive = about 30% to 50%; inactive = below about 30%; also: 0% is about no effect; the text of the record puts the active cut at 80%
#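 In this qHTS format, compounds were pin-transferred onto Ca8-dye-loaded TRPML1-DL cells induced with Tet overnight, and intracellular Ca2+ fluorescence was recorded kinetically for 110 s after a 10 s baseline. A subsequent 4uM final 54-4 (EC80) addition followed by a second 110 s read served as the antagonist phase.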
# D2 agonist = Beta-Arrestin HTS for Positive Allosteric Modulators of the Human D2 Dopamine Receptor: Agonists | 360,000 compounds, 0.084% hits | AID 624465, 2012 | D(2) dopamine receptor (Homo sapiens), P14416 | DiscoveRx PathHunter D2 beta-arrestin, luminescence, 90 min; 100% = 57 uM dopamine signal | activation, % (concentration not given with the values); in the data active = activation above about 40%; inconclusive = about 15% to 40%; inactive = below about 15%; also: the text of the record calls up to 30% inactive
#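 Agonist mode: compounds alone added to overnight-plated D2 PathHunter cells for 90 min at 37 C, with 57 uM final dopamine (EC100) defining full response. Beta-arrestin recruitment detected by chemiluminescent reagent, read after 1 h at ambient temperature.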
# Six1-Eya2 blk = qHTS Assay for Inhibitors of the Six1/Eya2 Interaction; Homeobox protein SIX1 (Homo sapiens) + Protein phosphatase EYA2 (Homo sapiens), …; AlphaScreen GST-Six1/His-Eya2 binding, biochemical; hits give low values; control for the full effect not named in the record; activity change, % (test concentration not listed); 360,000 compounds, 0.56% hits; in the data active = activity change below about -65%; inconclusive = about -30% to -65%; inactive = above about -30%; also: % is scaled to controls: 0 for no effect and ±100 for the full control effect
# Target sequence (O00167 whole entry, looked up): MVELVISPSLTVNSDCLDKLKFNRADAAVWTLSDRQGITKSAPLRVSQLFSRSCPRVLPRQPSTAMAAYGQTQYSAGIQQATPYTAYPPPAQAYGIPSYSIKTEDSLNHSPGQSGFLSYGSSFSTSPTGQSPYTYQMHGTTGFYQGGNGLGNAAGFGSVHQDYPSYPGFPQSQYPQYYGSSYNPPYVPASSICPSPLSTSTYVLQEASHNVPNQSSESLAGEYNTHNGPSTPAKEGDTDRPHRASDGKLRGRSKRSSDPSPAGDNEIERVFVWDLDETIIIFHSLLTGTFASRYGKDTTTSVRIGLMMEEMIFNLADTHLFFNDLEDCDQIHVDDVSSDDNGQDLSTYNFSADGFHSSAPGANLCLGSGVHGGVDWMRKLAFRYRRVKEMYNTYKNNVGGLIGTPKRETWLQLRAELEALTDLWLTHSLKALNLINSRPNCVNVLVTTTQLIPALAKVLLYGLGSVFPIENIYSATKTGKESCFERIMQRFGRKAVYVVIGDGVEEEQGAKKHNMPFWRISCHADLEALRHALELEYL
# Target sequence (Q15475 whole entry, looked up): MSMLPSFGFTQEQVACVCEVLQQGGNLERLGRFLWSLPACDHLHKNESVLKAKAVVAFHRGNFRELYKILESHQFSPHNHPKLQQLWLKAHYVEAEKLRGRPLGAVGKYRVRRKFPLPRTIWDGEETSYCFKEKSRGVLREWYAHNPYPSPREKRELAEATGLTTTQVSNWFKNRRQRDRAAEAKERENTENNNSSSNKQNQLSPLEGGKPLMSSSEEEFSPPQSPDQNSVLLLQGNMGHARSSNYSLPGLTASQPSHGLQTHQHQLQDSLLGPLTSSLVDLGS
#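 Compounds are tested against tagged Six1 and Eya2 proteins bridged by glutathione donor and nickel acceptor beads; after a one-hour incubation at 37 °C without light, AlphaScreen emission is recorded.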
# TRPML1 inh = qHTS for Inhibitors of the Human Mucolipin Transient Receptor Potential 1 (TRPML1). Mucolipin-1 (Homo sapiens), Q9GZU1. TRPML1-inducible cells, Ca2+ dye fluorescence, FDSS; hits give low values; inhibition of EC80 agonist-evoked calcium signal. activity change, negative = inhibition, % (no concentration beside the values). 390,000 compounds, 0.02% hits; in the data active means activity change below about -50%; inconclusive means about -30% to -50%; inactive means above about -30%;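 also: stimulus is agonist 54-4 at its EC80 concentration; % is scaled to controls: 0 for no effect and ±100 for the full control effect; compound concentration not given in the record; the text of the record puts the active cut at -80%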
#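 Calcium fluorescence in TRPML1-DL cells induced overnight with Tet: a 110 s read after compound pin addition, then a 110 s antagonist read after challenge with 54-4 at 4 uM final (EC80).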
# The depositor's hits bear a star; ? = inconclusive; · = not tested or not shown; & = joins results of further samples; [ ] = dose if it differs, or a comment. The order is random; overall some 1% were active at least once.
SMILES,CtBP-E1A blk,PINK1 modulator,TRPML1 agonist,D2 agonist,Six1-Eya2 blk,TRPML1 inh
CCOC(=O)c1c(C)[nH]c(C(=O)OC(C)C(=O)Nc2ccc(C)cc2)c1C (stereo not given),1,1.8%,-1.0,-0.6,0,-5
Cc1cc(NC(=O)CSc2nc3ccccc3n2CC(C)C)no1,·,2.1%,2.3,2.4,3,2
CN(Cc1ccccc1)C(=O)CCC1CCN(C(=O)CC2=CCCCC2)CC1,-1,0.7%,-0.3,-2.1,-1,-1
O=S(=O)(c1ccc(-n2cnnn2)cc1)N1CCN(c2ccccc2F)CC1,·,3.7%&0.2%,0.3&1.2,-0.3,7,-14&5
CC(C)c1nnc(NC(=O)CSc2nnc(-c3ccco3)o2)s1,8,0.1%,-0.8,-2.2,?,-5
CN(CC(=O)Nc1cccc(F)c1)C(=O)c1csc2c1CCCC2,11,2.6%,0.4,-7.0,-4,-6
C/C(=C\c1ccco1)C1C(C#N)=C(N)Oc2n[nH]c(-c3ccc(C)cc3)c21 (stereo not given),10,?,1.6,4.9,-3,28
CC(C)c1c(C(=O)N/N=C2\CCc3ccccc32)nnn1-c1nonc1N,7,7.3%,-0.1,-2.8,0,5
O=C(OCc1c(F)cccc1Cl)c1cnc(Cl)c(Cl)c1,1,-2.5%,2.9,-1.2,5,15
CN(C(=O)c1cccc(NC(=O)Cc2ccc(NC(=O)C3CCN(C(=O)c4ccccc4)CC3)cc2)c1)C1CCC1,0,-1.6%,1.4,3.9,2,27
CCc1ccc(NC(=O)c2cc(S(=O)(=O)NC3CCCCCC3)ccc2F)cc1,·,6.8%,2.5,·,·,14
CCOC(=O)N1CCN(C(=O)CSC2=NS(=O)(=O)c3cc(F)ccc3N2)CC1,7,3.8%,1.4,0.5,8,4
Cc1cc(=O)oc2cc(OCC(=O)NCCc3c[nH]c4ccc(F)cc34)ccc12,4,5.0%,-1.0,-1.3,2,2
CC1(c2nnc(Cc3ccccc3)o2)CC(c2cccc([N+](=O)[O-])c2)=NO1 (stereo not given),-7,-0.3%,-0.2,-0.3,5,-11
CCOC(=O)C1CCCN(CC(=O)NC2=Nc3ccccc3N=C(C)C2c2ccccc2)C1 (stereo not given),-3,-0.2%,1.0,-1.1,-5,26
COc1ccc(C(C)C)cc1S(=O)(=O)NCC1CCCO1 (stereo not given),-11,2.6%,0.0,2.7,15,10
Nc1[nH]n2c(=O)c3c(nc2c1N=Nc1ccccc1)CCCC3,?,-2.4%,5.4,-3.2,?,40
O=C(NCc1ccco1)C1Cc2c(-c3cccc(F)c3)ccnc2O1 (stereo not given),-1,1.8%,-0.4,-3.7,-8,-8
COc1ccc(S(=O)(=O)NCCC(=O)N2CCCC2)cc1N(C)S(C)(=O)=O,3,1.6%,0.9,-1.9,-2,-5
Cc1ccc2c(CC(=O)Nc3ccc(S(=O)(=O)N4CCCCC4)cc3)coc2c1C,·,-0.3%,0.8,·,·,-11
COc1ccc(OC)c(Nc2c3c(nc4ccccc24)CCC3)c1,-26,?,1.9&1.4,0.6,-22,-9&29
COc1cc(Cl)ccc1OCc1cc(C(=O)NCC(C)c2ccccc2)no1 (stereo not given),-1,-0.7%,0.1,-9.8,-3,26
O=C(COC(=O)c1ccc(NS(=O)(=O)c2ccc3c(c2)OCCO3)cc1)NC1CCS(=O)(=O)C1 (stereo not given),3,-0.1%,-0.1,-0.4,0,-8
COCCNC(=O)c1ccc(-n2c(SCc3cccnc3)nc3ccccc3c2=O)cc1,6,6.6%,-0.3,-2.9,-1,1

# The list goes on; the last 5 above are carried over.
SMILES,CtBP-E1A blk,PINK1 modulator,TRPML1 agonist,D2 agonist,Six1-Eya2 blk,TRPML1 inh
Cc1ccc2c(CC(=O)Nc3ccc(S(=O)(=O)N4CCCCC4)cc3)coc2c1C,·,-0.3%,0.8,·,·,-11
COc1ccc(OC)c(Nc2c3c(nc4ccccc24)CCC3)c1,-26,?,1.9&1.4,0.6,-22,-9&29
COc1cc(Cl)ccc1OCc1cc(C(=O)NCC(C)c2ccccc2)no1 (stereo not given),-1,-0.7%,0.1,-9.8,-3,26
O=C(COC(=O)c1ccc(NS(=O)(=O)c2ccc3c(c2)OCCO3)cc1)NC1CCS(=O)(=O)C1 (stereo not given),3,-0.1%,-0.1,-0.4,0,-8
COCCNC(=O)c1ccc(-n2c(SCc3cccnc3)nc3ccccc3c2=O)cc1,6,6.6%,-0.3,-2.9,-1,1
COC(=O)CN(c1cccc(OC)c1)S(C)(=O)=O,3,1.9%[38.3 µM],0.2,-2.0,0,24
Nc1c(C(=O)NCc2ccccc2)nnn1Cc1cccc(Br)c1,·,8.2%,2.9,·,·,3
CCOc1ccc(N2CC(C(=O)N3CCc4ccccc4C3)CC2=O)cc1 (stereo not given),-5,1.3%,-0.9,-0.2,10,24
O=C(c1ccc2c(c1)OCO2)N1CCN(S(=O)(=O)N2CCCCC2)CC1,1,-1.5%,0.3,2.5,2,-5
Cc1[nH]c(=O)sc1C(=O)NCc1ccc([N+](=O)[O-])cc1,0,1.3%,-0.7,-4.4,-5,·
CCN(CCNC(=O)C1CCC(=O)N1Cc1ccc(C)cc1)c1ccccc1 (stereo not given),·,-1.0%,-1.0,-1.4,5,2
CCOc1ccc(NC(=O)CN(C)C(=O)COc2cccc(CC)c2)cc1OCC,15,3.2%,-0.6,-3.4,-6,5
Cc1cc2oc(C(=O)N(Cc3ccccc3F)C3CCS(=O)(=O)C3)c(C)c2cc1Cl (stereo not given),·,0.0%,0.4,·,·,5
CCn1c(=O)c2cc(C(=O)NCCC(C)C)sc2c2ccccc21,0,11%,1.9,-3.9,18,-4
O=S(=O)(c1ccccc1)N1CCN(c2cccc(Cl)c2)CC1,12,-0.4%,1.6,-0.3,8,-12
Cn1cccc1C(=O)NC(=O)COC(=O)c1ccc(O)cc1,9,·,0.6,-1.2,4,1
Cc1nnc(SCCc2ccccc2)[nH]c1=O,2,-0.3%,-0.7,-3.4,0,-11
CCOC(=O)c1cc(C)n(CC2CCC(C(=O)Nc3cccc(Cl)c3)CC2)c1C (stereo not given),·,-0.6%,-0.4,·,·,-11
CCOC(=O)CC1=CSC2=NS(=O)(=O)CCN12,-4,-0.8%,-0.2,-2.4,-3,-14
COCCN(C(=O)Cn1nnc2ccccc21)C(C(=O)NC1CCCCC1)c1ccc(OC)cc1OC (stereo not given),-1,2.6%,0.7,-0.5,0,14
CCNC(=O)C1(C)CCCN(Cc2noc(-c3ccccc3OC)n2)C1 (stereo not given),-20,-0.6%,-0.3,-5.5,5,·
Cc1[nH]c2ccc(C(C)C)cc2c1CC(=O)O,-1,0.3%,0.1,0.6,0,25
CN(Cc1ccc(Cl)cc1Cl)C(=O)CNC(=O)c1ccc2c(c1)OCO2,-2,-3.0%,0.2,-4.8,-10,22
COc1ccc(-n2nc(C(=O)c3cccs3)cc(-c3nc4ccccc4[nH]3)c2=N)cc1,-11,8.7%,-0.4,-1.9,-6,-15
O=C(CN1C(=O)c2ccccc2Sc2ncccc21)Nc1cccc(C(F)(F)F)c1,·,1.4%,0.2,·,·,-9
CCn1ncc(Br)c1C(=O)Nc1cc(C)cc(C)c1,27,?,2.0,0.4,7,7
O=C(NCC(c1cccnc1)N1CCN(c2ccc(F)cc2)CC1)OCc1ccccc1 (stereo not given),3,1.4%,-0.4,-3.0,2,3
COc1ccc(CNC(=O)CN(Cc2ccccc2)S(=O)(=O)c2ccc(Cl)cc2)cc1,8,?,0.5,-2.9,-1,3
COc1ccccc1N1CCN(C2CCCN(C(=O)c3ccsc3)C2)CC1 (stereo not given),2,-0.7%,-0.4,-0.8,0,9
CCOc1ccc(NC(=O)CN(C)C(=O)c2cn3ccccc3n2)cc1OCC,0,-0.2%,0.5,-2.1,-9,-15
CC(=O)N1c2ccc(S(=O)(=O)NCC3CCC(C(=O)Nc4cccc(F)c4)CC3)cc2CC1C (stereo not given),·,17%,0.3,·,·,-5
C[C@@H](CO)NC(=O)c1nc[nH]c1C(=O)N[C@H](C)c1ccccc1,3,-0.4%,·,-2.4,3,·
COc1ccc2nc3oc(C(=O)NCCCOC(C)C)cc3cc2c1,?,2.0%,-0.9,1.3,?,10
CCCCn1c(N)c(N(CC(C)C)C(=O)C2CCCN(C(=O)c3ccc(Cl)cc3)C2)c(=O)[nH]c1=O (stereo not given),-4,-3.3%,0.5,-3.5,-3,-21
N#C/C(=C(/O)COC(=O)CCC1CCCCC1)c1nc2ccccc2[nH]1,-1,3.7%,-0.3,-0.8,-3,10
CCNS(=O)(=O)c1ccc(NC(=S)NCc2ccco2)cc1,-4,-2.4%,1.1,0.7,-8,11
Nc1ncnc2c1nc(N1CCCCC1)n2[C@@H]1O[C@H](CO)[C@@H](O)[C@H]1O,3,-0.5%,-0.7,-1.0,1,-1
CCN1C(=O)[C@H]2[C@@H](c3ccc(-c4ccc(Cl)c(Cl)c4)cc3)N[C@@](CC(C)C)(C(=O)OC)[C@H]2C1=O,-3,1.9%,0.4,1.3,-15,18
O=C(NCc1ccco1)/C(=C/c1ccc(C(F)(F)F)cc1)c1nc2ccccc2[nH]1,-14,1.6%,1.8,-0.2,-5,5
Cc1ccc(S(=O)(=O)NC(C)(C)CSc2ccccn2)cc1,8,-2.5%,-0.3,-2.3,9,-12
Cc1nc2ccn(Cc3ccccc3)c(=O)c2cc1C(=O)NCc1ccccc1F,·,3.0%,0.8,·,·,22
CCN1CCN(CC(=O)Nc2sc3c(c2C#N)CCC(C)C3)CC1 (stereo not given),-5,4.7%,0.7,-4.2,-4,3
COCCNCCOc1ccccc1-c1ccccc1,-10,-1.6%,-0.3,3.7,7,0
COc1ccc(OCCCC(=O)OCC(=O)Nc2ncc(Cl)cc2Cl)cc1,-8,0.8%,2.3,-0.6,-2,3
COc1ccc(-c2nc(C#N)c(N3CCC(C)CC3)o2)cc1,-4,0.8%,0.7,-0.1,4,-5
Cc1ccc(S(=O)(=O)N/N=C\c2cc([N+](=O)[O-])ccc2Cl)cc1,10,·,-0.1,-0.4,0,3
COCCN(C(=O)COC(=O)Cc1coc2cc3c(cc12)CCC3)c1c(N)n(Cc2ccccc2)c(=O)[nH]c1=O,-11,1.5%,0.3,-5.2,-19,-19
Cc1nc2nc[nH]n2c(=O)c1NS(=O)(=O)c1ccc(C(C)(C)C)cc1,-12,3.0%,0.6,-2.6,8,-13
Cc1cc(NC(=O)c2ccc(Cl)cc2)n(-c2ccccc2)n1,·,1.5%,3.9,-4.1,0,14
